ClpP mod: qHTS Assay for Activators of ClpP; AID 651965, 2013; hit rate 1.9% among 340,000; ATP-dependent Clp protease proteolytic subunit (Bacillus subtilis (strain 168)), P80244; purified B. subtilis ClpP, FRET peptide cleavage, 20 min; Potency, µM (series often up to 57.5 µM), for inactives: at the top dose activity change, negative = active; active = well fitted falling curve with a large enough effect; inconclusive = small, poorly fitted or top-dose-only effect; inactive = no such curve, though single readings can be large or run the other way; note: potency is the fitted concentration of half-maximal effect; the source files actives as falling curves though it sought activators and does not explain the sign; nearly all actives have a fitted effect of over 65% in size; many hits overshoot -100%
Target sequence (P80244 whole entry, looked up): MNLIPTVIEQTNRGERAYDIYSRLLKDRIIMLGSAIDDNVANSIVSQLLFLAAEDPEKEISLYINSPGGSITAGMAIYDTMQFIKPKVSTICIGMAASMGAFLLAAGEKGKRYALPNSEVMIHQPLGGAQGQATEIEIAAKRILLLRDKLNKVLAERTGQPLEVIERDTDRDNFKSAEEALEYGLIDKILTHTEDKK
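ClpP 10 microg/mL final, pH 8 Tris/KCl buffer with BSA, glycerol, Tween-20; compound pinned in; FRET-FV substrate; RT 20 min; Ex320/Em430; ΔFRET vs ADEP 5.8 microM, DMSO, no enzyme.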
TRPML1 agonist: activates the human TRPML1 channel; Q9GZU1; TRPML1-expressing cells, Ca2+ dye fluorescence, FDSS; host cell line not named in the record; reference of the full effect not given here; activation, % (test concentration not listed); hit rate 0.12% among 410,000; AID 624414; in the data active = activation above about 50%; inconclusive = about 30% to 50%; inactive = below about 30%; note: 0% is about no effect; the text of the record puts the active cut at 80%
Target sequence (Q9GZU1 whole entry, looked up): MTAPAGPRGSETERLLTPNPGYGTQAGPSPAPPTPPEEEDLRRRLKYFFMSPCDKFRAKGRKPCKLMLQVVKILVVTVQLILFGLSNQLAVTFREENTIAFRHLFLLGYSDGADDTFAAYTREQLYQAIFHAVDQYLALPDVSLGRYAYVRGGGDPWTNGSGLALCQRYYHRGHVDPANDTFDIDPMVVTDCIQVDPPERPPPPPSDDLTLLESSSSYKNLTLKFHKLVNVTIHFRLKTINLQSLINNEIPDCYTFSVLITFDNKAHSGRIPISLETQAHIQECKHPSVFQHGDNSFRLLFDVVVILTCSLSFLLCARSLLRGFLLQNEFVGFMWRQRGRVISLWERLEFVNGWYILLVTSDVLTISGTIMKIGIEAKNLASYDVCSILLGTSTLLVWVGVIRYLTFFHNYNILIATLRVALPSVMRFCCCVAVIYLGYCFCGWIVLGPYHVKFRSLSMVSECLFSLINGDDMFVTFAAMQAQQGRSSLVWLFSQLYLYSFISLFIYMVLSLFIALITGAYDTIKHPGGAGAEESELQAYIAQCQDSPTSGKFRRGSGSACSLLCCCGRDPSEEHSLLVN
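Tet-induced TRPML1-DL cells, 1,500 per well, cultured overnight, were loaded with a no-wash Ca2+ dye for 45–90 min. Calcium fluorescence was recorded on the FDSS for 110 s after compound addition, before the EC80 agonist (4 uM 54-4) was added.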
TRPML1 blocker: blocks the human TRPML1 channel | Q9GZU1 | TRPML1-inducible cells, Ca2+ dye fluorescence, FDSS; active compounds read low; inhibition of EC80 agonist-evoked calcium signal | activity change, negative = inhibition, % (test concentration not listed) | hit rate 0.02% among 390,000; in the data active means activity change below about -50%; inconclusive means about -30% to -50%; inactive means above about -30%;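 note: stimulus is agonist 54-4 at its EC80 concentration; % is set by controls: 0 for no effect and ±100 for the full control effect; compound concentration not given in the record; the text of the record puts the active cut at -80%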
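Calcium fluorescence in TRPML1-DL cells induced overnight with Tet: a 110 s read after compound pin addition, then a 110 s antagonist read after challenge with 54-4 at 4 uM final (EC80).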
TRPV1 potentiator: enhances activation of the human vanilloid receptor TRPV1 | Q8NER1 | TRPV1-expressing cells, Fluo-8 calcium influx, capsaicin EC20 potentiation; host cell line not named in the record; control for the full effect not named in the record | potentiation, % at 8.33 µM | hit rate 0.02% among 320,000; active means potentiation above 80%; inconclusive means 30% to 80%; inactive means below 30%; note: 0% is about no effect
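Cells expressing TRPV1 were dye-loaded with Fluo-8 and read kinetically: 10 s baseline, 3 min after compound (agonist portion), then 2 min after EC20 capsaicin (allosteric enhancer portion). Calcium-bound dye fluorescence at 480/520 nm.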
Sfp PPTase inh: inhibitors of Bacillus subtilis Sfp phosphopantetheinyl transferase; Q9F4F7; Biochemical Sfp PPTase activity, qHTS; Potency, µM, for inactives: max response, negative = inhibition, actives largely listed as inhibitors; hit rate 3.5% among 310,000; active = well fitted inhibition curve with a large enough effect; inconclusive = small, poorly fitted or top-dose-only effect, or another doubt; inactive = no such curve, though single readings can be large or run the other way;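 note: the enzyme is Sfp with the accession as filed and its product quenches rhodamine fluorescence; potency is the fitted concentration of half-maximal effect; 0% = enzyme reaction without inhibitor and -100% = no enzyme wells; top concentration of the series not given in the record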
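Step 1, compound plus 15 nM Sfp-PPTase, 15 min, room temperature. Step 2, add rhodamine-CoA (5 uM) and BHQ-2-YbbR (12.5 uM). Step 3, read 525/598 nm fluorescence at 0 and 30 min.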
Menin-MLL FL inh: inhibitors of human menin-MLL interaction, wild-type MLL peptide; FP activity change, % at 61.4 µM; Fluorescence polarization, fluorescein-MLL peptide displacement from menin; 290,000 tested, under 10 active; AID 1766; inconclusive = falling polarisation curve, or a change in total fluorescence; inactive = total fluorescence flat and polarisation flat or rising; no compound was filed as active; the % refers to the polarisation; negative = inhibition;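 note: % of control where 0% means no effect; inhibitors lower the polarisation; unlabelled MLL peptide was the positive control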
PINK1 modulator: modulators of PINK1 expression; PINK1 immunofluorescence, high-content cytometry, 24 h; Potency, µM (highest dose often 76.6 µM), for the others: at the highest dose activation (PINK1 increase), hits mostly activators; hit rate 0.2% among 410,000; active = well fitted activation curve with a large enough effect; inconclusive = small, poorly fitted or top-dose-only effect; inactive = flat fitted curve, though single readings scatter; cell line not stated here;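 note: potency is the fitted concentration of half-maximal effect; % of control where 0% means no effect; nearly all actives have a fitted effect of over 65% in size; a mitochondrial uncoupler was the plate control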
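A stable cell line was treated with compounds at 5 concentrations for 24 hours, with CCCP as control. PINK1 levels and mitochondrial localization were measured by immunofluorescence with mitochondrial, cell and nuclear markers after fixation, read by laser-scanning cytometry.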
* = called active by the depositor; ? = inconclusive; . = no result given; & = joins results of further samples; [ ] = another dose, or the depositor's remark.

SMILES | ClpP mod | TRPML1 agonist | TRPML1 blocker | TRPV1 potentiator | Sfp PPTase inh | Menin-MLL FL inh | PINK1 modulator
O=C1CC(SC2=NCCS2)C(=O)N1c1cccc(Cl)c1Cl (configuration not stated) | 1.3% | -0.1 | 0.2 | -1.0 | -2.3% | 2.3 | 2.3%
C[C@H](CO)N1C[C@H](C)[C@@H](CN(C)C(=O)NC2CCCC2)Oc2cc(Br)ccc2S1(=O)=O | 2.0% | -0.3 | -5.9 | . | . | . | 0.2%
Cc1ccc(CCNC(=O)NCc2noc3ccc(C)cc23)cc1 | 0.9% | 1.6 | -12.9 | . | . | . | 1.1%
CCC(/C=N/Nc1ccc(S(=O)(=O)N2CCCC2)cc1[N+](=O)[O-])CC | -0.7% | 0.1 | 0.6 | -8.4 | 6.6% | 11.5 | 5.0%
Cc1[nH]c(=S)c(C#N)c(C)c1CCC#N | . | -0.1 | -22.2 | ? | 17.8µM* | 1.5 | -1.9%
COCCCN(CC(=O)O)S(=O)(=O)c1cccc(Cl)c1 | -0.1% | -0.4 | 4.1 | -6.4 | 28.7% | -1.5 | 0.2%
COc1ccc(Cl)cc1NC(=S)Nc1ccccc1F | . | -0.8 | 7.5 | 7.3 | ? | -0.5 | 0.2%
CS(=O)(=O)Cc1ccc(C(=O)N2CCCC2c2cccs2)cc1 (configuration not stated) | . | -0.1 | 2.4 | 7.7 | 13.1% | -6.7 | -1.1%
CCc1ccc(-c2nn(-c3cc(Cl)ccc3[N+](=O)[O-])c(=O)c3ccccc23)cc1 | -1.7% | -0.4 | -0.5 | 4.1 | 2.5% | 0.5 | 10.5%
CC1(C(=O)NCCc2c[nH]c3ccccc23)CCN1Cc1ccccc1OC(F)F (configuration not stated) | -7.0% | -0.7 | . | . | . | . | -0.6%
CCNc1nnc(-c2ccncc2)s1 | -14.5% | -0.5 | 31.6 | 12.3 | 7.1% | 4.7 | 0.6%
O=C(CCCn1cc([N+](=O)[O-])cn1)NC1CCCCCC1 | . | -1.0 | -0.7 | -28.5 | 10.2% | -1.1 | -0.5%
Cc1onc(-c2ccccc2)c1-c1nnc(COC(=O)c2ccc(O)cc2)o1 | . | -0.1 | 5.9 | -5.8 | . | . | 1.9%
COc1ccc(CC(=O)N(Cc2nc(-c3ccc(C)cc3)no2)C(C)C)cc1 | 0.8% | 0.0 | -5.0 | . | . | . | 3.2%
CC1CCCN(S(=O)(=O)c2coc(C(N)=O)c2)C1 (configuration not stated) | -1.3% | 0.7 | 23.3 | -0.1 | 23.5% | 3.2 | 2.9%
CN(Cc1ccon1)C(=O)CC1C(=O)NCCN1Cc1ccccc1C(F)(F)F (configuration not stated) | -10.1% | -0.5 | 23.5 | -1.8 | -1.8% | -9.8 | -1.2%
N#C/C(=C\c1ccc(OC(=O)c2ccc(Br)s2)cc1)c1nc2ccccc2[nH]1 | -3.1% | -0.9 | -0.8 | -19.6 | -22.5% | ? | 5.4%
COc1ccc(CCNC(=O)c2ccc3c(=O)n4c(nc3c2)CCC4)cc1OC | . | 0.6 | -15.1 | -0.1 | . | . | 1.1%
Cc1csc(=Nc2ccccc2)n1CCO | -1.0% | -0.2 | -26.9 | 0.2 | 15.9% | -0.5 | 1.3%
COc1ccccc1NC(=O)Cn1c(=O)n2nc(C)nc2c2ccccc21 | -15.0% | 0.2 | -13.9 | . | 6.4% | 4.1 | 0.6%
O=C(CSc1nnc2ccccn12)Nc1ccc2c(c1)OCO2 | . | 0.1 | -0.2 | 5.5 | 25.3% | -2.3 | -1.5%
CCN(CC(=O)Nc1c(F)cccc1F)C(=O)/C=C/c1cn(Cc2ccccc2)nc1-c1cccnc1 | -6.7% | -0.1 | 8.8 | 22.1 | 18.9% | . | 1.7%
Cc1nc(SCn2nnc3ccccc3c2=O)nc(C)c1C | -0.9% | 1.6 | 7.9 | 17.3 | 4.8% | -1.0 | 0.0%
C=CCNc1nc(C)nc(OC)n1 | -2.2% | 1.6 | 16.7 | 4.0 | 11.5% | 0.8 | -0.3%
O=C(O)c1cccc(S(=O)(=O)NCCc2ccccc2)c1 | . | 0.9 | 1.6 | -7.0 | 22.2% | -3.6 | -0.3%
CC(=O)c1c(C(C)=O)c(C)n(C2CCCCC2)c1C | -1.7% | -0.6 | 1.5 | -14.0 | 6.1% | 5.6 | -1.0%
O=C(Nc1ccc(Cl)cc1)C1(S(=O)(=O)c2ccccc2)CC1 | -2.0% | 1.7 | -0.7 | . | . | . | -1.2%
CC1C/C(=N\NC(=O)CCc2ccc(S(=O)(=O)N3CCOCC3)cc2)CC(C)(C)C1 (configuration not stated) | -7.3% | 0.9 | -11.4 | -6.7 | 9.5% | 7.0 | 1.1%
Cc1cc(C)n(/N=C/c2cccs2)c(=O)c1C#N | 0.3% | 0.4 | 12.9 | -13.8 | 25.6% | 0.7 | -0.2%
O=C(CSc1nnc(C2CC2)n1Cc1ccccc1)Nc1cccnc1Cl | . | -0.4 | -3.9 | -4.4 | 12.7% | 0.2 | 0.0%
COC(=O)c1cc(NC(=O)c2c(-c3c(Cl)cccc3Cl)noc2C)ccc1N1CCOCC1 | -6.1% | -1.1 | -4.8 | 21.9 | -2.7% | 3.3 | 5.3%
COc1ccc(CCNC(=O)CSc2nc3[nH]ncc3c(=O)n2-c2ccccc2OC)cc1OC | 0.9% | 0.3 | 10.1 | 10.3 | 4.7% | -2.9 | 1.4%
O=C1c2ccccc2S(=O)(=O)N1CC(O)COc1ccc(Br)cc1 (configuration not stated) | -4.6% | 1.0 | -2.7 | -4.6 | -2.0% | 1.4 | 0.3%[38.3 µM]
CC(=O)Nc1ccc(NC(=O)c2cc(CN3CCCC3)on2)cc1 | 0.2% | 0.4 | 7.4 | . | . | . | 0.2%
COc1ccc(/C=C2\SC(=O)N(CCNC(=O)C3CC(=O)N(c4ccccc4)C3)C2=O)cc1 (configuration not stated) | -1.8% | -0.2 | -3.1 | 5.1 | -11.5% | -0.5 | 1.7%[38.3 µM]
Cc1ccc(-n2nc(C)c3c(=O)[nH]c(C(F)(F)F)nc32)cc1 | . | . | . | -1.8 | 7.8% | 5.2 | .
CC(C)Cn1cnc2c(c1=N)C(c1ccccc1)C1=C(CC(C)(C)CC1=O)O2 (configuration not stated) | . | 28.2 | 0.9 | 7.4 | -4.1% | 0.5 | 6.6%
O=C(N/N=C/c1cccc(Oc2ccccc2)c1)c1ccccc1Br | 0.0% | 0.3 | 9.8 | -1.0 | 9.8% | 5.2 | .
O=[N+]([O-])c1ccc(NN=Cc2cc(Br)ccc2O)nc1 | . | -0.3 | -13.1 | . | . | . | -0.1%
S=c1[nH]nc(COc2ccccc2)n1/N=C/c1ccccn1 | -0.3% | -1.2 | 3.0 | 0.0 | -70.2% | -4.4 | -1.6%
CC(=O)N1CCC2(CC1)C/C(=N\NC(=S)Nc1ccccc1C)c1cc(O)ccc1O2 | -29.5% | -0.4 | -8.0 | 5.4 | 0.9% | -3.6 | 0.0%
O=C1C(=O)N(c2ccccn2)C(c2ccc(F)cc2)/C1=C(/O)c1ccc(Br)cc1 (configuration not stated) | -0.6% | . | . | 24.8 | 18.2% | 3.1 | 3.5%
O=C(NCc1ccco1)Nc1ccc([N+](=O)[O-])cc1 | 0.3% | 0.9 | 26.1 | -19.9&-11.5 | -11.7%&5.6% | -1.6&3.1 | 1.6%
CC1=C(c2ccc(C)c(C)c2)S(=O)(=O)N=C1N1CCC(C(=O)Nc2ccc(Cl)cc2)CC1 | -0.3% | -0.4 | -5.1 | . | . | . | 5.5%
CC(=O)C(=Nc1ccc(Cl)cc1Cl)NNc1cccc(Cl)c1 | -1.4% | 2.6 | 0.7 | -7.4 | 3.1% | 0.3 | 23.1%
CC1CCCCN1C(=O)c1ccc(OC2CCN(S(=O)(=O)N(C)C)CC2)cc1 (configuration not stated) | . | 0.9 | -3.5 | 0.8 | 9.2% | -0.7 | -0.6%
CC(=O)N1CCC[C@@]2(CCN(c3ccncc3)C2)C1 | . | . | . | . | 8.5% | -1.7 | 0.0%
Cc1cc(NC(=O)CSc2ncc(C(=O)Nc3ccc(C)c(C)c3)c(=O)n2C)no1 | -7.0% | 0.2 | 38.9 | . | . | . | -0.7%

4 compounds from above, sorted by the value under Menin-MLL FL inh, rising:
Molecule,TRPML1 blocker,Sfp PPTase inh,Menin-MLL FL inh,PINK1 modulator
S=c1[nH]nc(COc2ccccc2)n1/N=C/c1ccccn1,3.0,-70.2%,-4.4,-1.6%
CC1CCCCN1C(=O)c1ccc(OC2CCN(S(=O)(=O)N(C)C)CC2)cc1 (configuration not stated),-3.5,9.2%,-0.7,-0.6%
CC(=O)C(=Nc1ccc(Cl)cc1Cl)NNc1cccc(Cl)c1,0.7,3.1%,0.3,23.1%
O=C1C(=O)N(c2ccccn2)C(c2ccc(F)cc2)/C1=C(/O)c1ccc(Br)cc1 (configuration not stated),.,18.2%,3.1,3.5%

Records above that bear a hit mark in Sfp PPTase inh.
Molecule | TRPML1 blocker | Sfp PPTase inh | Menin-MLL FL inh | PINK1 modulator
Cc1[nH]c(=S)c(C#N)c(C)c1CCC#N | -22.2 | 17.8µM* | 1.5 | -1.9%

Other compounds
SMILES | ClpP mod | TRPML1 agonist | TRPML1 blocker | TRPV1 potentiator | Sfp PPTase inh | Menin-MLL FL inh | PINK1 modulator
CCn1c(SCC(=O)Nc2nccs2)nnc1-c1cccnc1 | -0.4% | 0.3 | 17.1 | ? | 17.7% | . | -1.2%
Cc1ccccc1S(=O)(=O)N1C[C@H]2[C@H]3C(=O)N(C4CCCCC4)C(=O)[C@H]3CC(=O)[C@H]2[C@@H]1c1ccc(Cl)cc1 | -3.5% | 1.1 | -11.5 | . | . | . | 1.7%
Cc1ccc(Cl)cc1NC(=O)COCc1cc(-c2ccco2)on1 | -1.7% | 4.2 | 10.7 | . | . | . | -0.8%
O=S(=O)(c1cccc2c(S(=O)(=O)N3CCCC3)cccc12)N1CCCC1 | 1.2% | -1.4 | 5.9 | -14.5 | 12.0% | 1.4 | 0.3%
CCN(CC(=O)Nc1c(F)cccc1F)C(=O)c1ccc(N2CCCC2)c([N+](=O)[O-])c1 | 4.4% | -0.3 | -10.2 | -2.3 | . | . | 5.8%
Cc1c(C)[n+](=O)c(-c2ccco2)c(C)n1[O-] | -2.9% | 0.6 | -3.6 | -0.6 | -0.6% | 0.6 | 3.8%[38.3 µM]

From PubChem BioAssay
